Compound activity deposited in PubChem BioAssay by Broad Institute.
FGF22 binding – binders of human FGF22 protein, primary screen, FGF22 synaptogenesis inhibitor project, biophysical, thermal shift, single point; recombinant FGF22 thermal shift, SYPRO orange fluorescence; percent of sucrose octasulfate shift, DMSO zero; calls only at 9.99 µM; 1.5% of 340,000 active;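 active = melting point raised past a set limit in the mean and every replicate; inconclusive = no clear call; three in four hits are not shown here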
Target sequence (Q9HCT0 whole entry, looked up): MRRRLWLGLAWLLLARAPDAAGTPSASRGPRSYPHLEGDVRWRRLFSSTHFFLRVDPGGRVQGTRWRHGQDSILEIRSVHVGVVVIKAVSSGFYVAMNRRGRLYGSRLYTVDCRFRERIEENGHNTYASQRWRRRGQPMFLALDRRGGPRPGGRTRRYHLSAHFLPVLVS
rRNA inh HTS – reduced GFP signal of wild-type E. coli, primary screen, bacterial rRNA inhibitor project, GFP/RFP fluorescence, OD600, single point. E. coli WT GFP vs humanized-ribosome RFP mutants, 24 h; active compounds read low; DMSO median 0, no signal -100. 1.6% of 350,000 active. GFP signal change (wild-type ribosome), % (test concentration not listed);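 active = significant combined selectivity score with lowered wild-type GFP, culture density cut under 30%, mutant RFP and density less affected; inactive = any of these conditions unmet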; also: one replicate is shown; some compounds called inactive have numbers as strong as hits
MLL AF4-AF9 inh – inhibitors of AF4 peptide binding to AF9, primary screen, biochemical, AlphaScreen, biotin-AF4 peptide, FLAG-AF9, single point | Protein AF-9 (Homo sapiens), P42568 | inhibition, % at 10 µM | 0.47% of 350,000 active;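 active = every replicate reaching a set inhibition limit, whatever the replicate mean, cut at about 25% in these data; inconclusive = mean inhibition reaches that limit but some replicates miss it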;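 also: 0% = plate neutral control median and 100% = total signal loss; the record names both 10 and 1 µM as test concentration; the first replicate is given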
Target sequence (P42568 whole entry, looked up): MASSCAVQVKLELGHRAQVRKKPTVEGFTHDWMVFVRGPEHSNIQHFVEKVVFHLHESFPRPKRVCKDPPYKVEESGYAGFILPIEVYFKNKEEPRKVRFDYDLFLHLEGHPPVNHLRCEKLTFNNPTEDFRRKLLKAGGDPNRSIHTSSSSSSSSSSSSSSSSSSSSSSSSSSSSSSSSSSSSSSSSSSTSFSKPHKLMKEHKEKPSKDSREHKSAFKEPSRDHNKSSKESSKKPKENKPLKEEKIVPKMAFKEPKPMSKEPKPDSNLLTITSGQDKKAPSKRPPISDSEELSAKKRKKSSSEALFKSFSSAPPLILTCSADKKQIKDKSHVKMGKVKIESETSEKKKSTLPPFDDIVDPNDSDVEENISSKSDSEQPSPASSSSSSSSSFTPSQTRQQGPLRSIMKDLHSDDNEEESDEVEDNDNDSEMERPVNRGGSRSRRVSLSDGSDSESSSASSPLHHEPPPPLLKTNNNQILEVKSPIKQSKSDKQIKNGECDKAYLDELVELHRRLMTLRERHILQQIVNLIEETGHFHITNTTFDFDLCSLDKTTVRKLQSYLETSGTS
rRNA inh HTS OD600 – second read-out of rRNA inh HTS, no call of its own (marks repeat the call); OD600 change, %; measured here: OD600 growth;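 optical density of the mix in the first replicate; 0 = DMSO median and -100 = no signal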
rRNA inh HTS RFP – second read-out of rRNA inh HTS, no call of its own (marks repeat the call); RFP signal change, %; measured here: RFP humanized mutant strains;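 first replicate; 0 = DMSO median and -100 = no signal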
* = called active by the depositor; i = inactive; ? = inconclusive; & = joins results of further samples.

FGF22 binding	rRNA inh HTS	rRNA inh HTS OD600	rRNA inh HTS RFP	MLL AF4-AF9 inh	SMILES
i	-1.1	-6.3	-0.2	-1.4	C[C@H]1CCCCO[C@H](CN(C)S(=O)(=O)c2cn(C)cn2)[C@@H](C)CN([C@@H](C)CO)C(=O)c2cc(NS(=O)(=O)c3ccc(F)cc3)ccc2O1
i	-6.8	-18.4	-5.1	-2.5	Cc1cccc(NC(=O)COC(=O)c2c(-c3ccccc3)noc2C)c1
i	-2.0	-4.9	0.8	1.5	OC[C@H]1[C@@H](c2ccccc2)C2(CN(Cc3nccs3)C2)N1CCC(F)(F)F
i	4.8	-2.4	-1.5	-0.9	CO[C@@H](CN(C)C(=O)c1cnccn1)[C@@H](C)CN([C@H](C)CO)S(=O)(=O)c1ccc(C)cc1
i	-1.9	-1.4	-1.1	3.2	COc1ccc(NC(=O)Nc2ccc3c(c2)CC(=O)N([C@@H](C)CO)C[C@@H](C)[C@H](CN(C)S(=O)(=O)c2ccc(OC)cc2)O3)cc1
i	-19.2	-42.0	-0.4	-2.0	C#CCN1C=CC(=O)[C@@H](OC(=O)Nc2ccccc2Br)[C@H]1c1ccccc1Br
i	-0.3	6.3	-0.3	-1.0	CS(=O)(=O)N1[C@@H]2c3ccc(-c4ccccc4)c(=O)n3C[C@@H]2[C@@H](CO)[C@@H]1C(=O)NC1CCC1
i	17.1	18.9	0.9	-1.6	CCCNC(=O)C1(C)CCCN(C(=O)c2cc(C(C)(C)C)nn2C)C1 (centres undefined)
i	-0.4	-3.3	2.0	1.1	CO[C@H]1CN(C)C(=O)c2cc(NS(=O)(=O)CC(F)(F)F)ccc2OC[C@@H](C)N(C(=O)c2ccc3c(c2)OCO3)C[C@H]1C
i	-0.5	9.1	-1.1	-0.7	C[C@@H]1CN([C@H](C)CO)C(=O)c2cccc(NC(=O)C3CCOCC3)c2O[C@@H]1CN(C)Cc1ccc2c(c1)OCO2
i	3.0	-7.0	6.3	0.6	C[C@H](CO)N1C[C@H](C)[C@H](CN(C)Cc2ccc(C(F)(F)F)cc2)OCCCC[C@H](C)Oc2ccc(NC(=O)Cc3ccccc3)cc2C1=O
i	2.1	2.8	-3.2	1.1	CC(C)NC(=O)Nc1cccc2c1O[C@H](CN(C)S(=O)(=O)c1ccc(F)cc1)[C@H](C)CN([C@H](C)CO)C2=O
i	2.0	6.6	-0.8	6.6	O=C(NCCN1CCCC1)[C@H]1N[C@H]2c3ccc(-c4ccccc4)c(=O)n3C[C@H]2[C@@H]1CO
i	15.5	6.2	14.4	2.6	Oc1ccc(C[C@H]2CNC(=S)N2CC2CCCN2C[C@H](Cc2ccccc2)N2C[C@H](Cc3ccc(O)cc3)N(CC3CCCCC3)C2=S)cc1 (some centres undefined)
i	-2.5	7.6	-4.9	-3.7	COc1cccc(CN(C)CCCn2cnc3c(SC)ncnc32)c1
i	4.2	7.0	-0.5	-1.5	Cc1ccc(-c2cnc3c(c2)C(=O)N([C@@H](C)CO)C[C@@H](C)[C@H](CN(C)C(=O)CN(C)C)O3)cc1
i	-25.1	-28.8	17.6	0.2	CN1CCN(C(=O)C[C@@H]2CC[C@H]3[C@@H](COC[C@H](O)CN3C(=O)Nc3cc(Cl)cc(Cl)c3)O2)CC1
i	5.3	16.7	0.1	-6.1	O=C(Nc1cccs1)Nc1nnc([C@@H]2C[C@H](O)[C@@H](CO)O2)s1
i	1.1	2.8	-2.8	1.0	C[C@H](CO)N1C[C@H](C)[C@H](CN(C)S(=O)(=O)c2cn(C)cn2)Oc2ncc(Br)cc2C1=O
i	-0.7	6.1	-1.6	-15.4	COc1ccc(S(=O)(=O)N(C)C[C@@H]2Oc3ncc(C#Cc4ccc(C(F)(F)F)cc4)cc3C(=O)N([C@H](C)CO)C[C@@H]2C)cc1

(further entries)
FGF22 binding	rRNA inh HTS	rRNA inh HTS OD600	rRNA inh HTS RFP	MLL AF4-AF9 inh	SMILES
i	3.4	-0.2	-1.5	0.6	O=C(C[C@H]1CC[C@@H]2[C@H](COC[C@H](O)CN2C(=O)Nc2ccccc2)O1)NC1Cc2ccccc2C1
i	-0.6	4.3	3.6	3.2	COc1ccc(NC(=O)Nc2cccc3c2O[C@@H](CN(C)Cc2ccc(-c4ccccc4)cc2)[C@@H](C)CN([C@H](C)CO)C3=O)cc1
i	-61.7	-75.9	-19.3	-0.9	Cc1cccc(-c2cnc(C(O)c3ccc(-c4ccccc4)cc3)[nH]2)c1 (centres undefined)
i	-25.0	-54.0	18.9	-4.2	COc1ccc(C(C)(O)c2nc(-c3csc4ccccc34)cs2)cc1 (centres undefined)
i	2.3	4.9	-0.4	4.5	C[C@@H]1CN([C@@H](C)CO)C(=O)Cc2cc(NC(=O)Nc3cccc4ccccc34)ccc2O[C@H]1CN(C)Cc1ccc(-c2ccccc2)cc1
i	3.3	1.1	-2.4	-11.7	CNC[C@@H]1OCCCC[C@@H](C)Oc2ccc(NS(C)(=O)=O)cc2C(=O)N([C@H](C)CO)C[C@H]1C
i	4.0	15.6	-2.0	-2.6	CC(C)NC(=O)N(C)C[C@H]1OCCCC[C@@H](C)Oc2ccc(NC(=O)c3ccncc3)cc2C(=O)N([C@H](C)CO)C[C@@H]1C
i	4.3	14.7	0.5	-1.8	C[C@@H]1CN([C@H](C)CO)C(=O)c2cc(C#CC3(O)CCCC3)cnc2O[C@H]1CN(C)Cc1ccncc1
i	-33.7	-54.4	1.3	3.6	COc1ccc(CN2C[C@@H](O)COC[C@@H]3O[C@H](CC(=O)N4CCc5ccccc5C4)CC[C@H]32)cc1
i	1.8	4.9	0.9	-1.8	C[C@H]1CN([C@@H](C)CO)C(=O)c2cc(NC(=O)Nc3ccc4c(c3)OCO4)ccc2O[C@H]1CN(C)C(=O)NC1CCCCC1
i	4.2	10.0	-1.4	-0.3	CCCc1cn(CC[C@@H]2CC[C@H](NC(=O)C3CCCC3)[C@@H](CO)O2)nn1
i	1.2	-20.7	18.7	?	C[C@@H]1CN([C@H](C)CO)C(=O)c2cc(C#CCc3ccccc3)cnc2O[C@@H]1CN(C)Cc1ccccc1
i	3.0	0.7	-4.6	-1.0	CCc1ccc(NC(=O)C(C)OC(=O)Cn2[nH]c(=O)c3ccccc3c2=O)cc1 (centres undefined)
i	-6.5	-5.7	0.9	6.5	O=C(NCC[C@H]1CC[C@H](NC(=O)c2ccc3c(c2)OCO3)[C@H](CO)O1)Nc1cc(F)ccc1F
i	-24.1	-46.3	44.5	-1.0	COc1ccc(C(NC(=O)C2CCN(CCOc3ccc(F)cc3)CC2)c2cccs2)cc1 (centres undefined)
i	-14.9	-18.6	-12.5	8.5	COc1cc(CN2C(=O)C(C)ON=C2c2ccccc2F)cc(OC)c1 (centres undefined)
i	-0.6	-0.7	-1.8	0.4	O=C(C[C@H]1C[C@H]2c3cc(NC(=O)NC4CCCC4)ccc3O[C@H]2[C@@H](CO)O1)NCc1ccc(Cl)cc1
i	0.9	0.0	0.1	-1.2	COC(=O)C[C@@H]1CC[C@@H]2[C@H](COc3ccc(NC(=O)c4ccccc4)cc3C(=O)N2C)O1
i	0.4	-1.4	1.4	-0.1	CCCC#Cc1ccc2c(c1)O[C@H](CN(C)CCC)[C@@H](C)CN([C@H](C)CO)S2(=O)=O
i	1.3	7.3	1.5	-4.3	C[C@@H]1CCCCO[C@@H](CN(C)S(=O)(=O)c2cn(C)cn2)[C@H](C)CN([C@@H](C)CO)C(=O)c2cc(NC(=O)NC3CCCCC3)ccc2O1

The closing two records of the part above come first, to join the parts:
FGF22 binding	rRNA inh HTS	rRNA inh HTS OD600	rRNA inh HTS RFP	MLL AF4-AF9 inh	SMILES
i	0.4	-1.4	1.4	-0.1	CCCC#Cc1ccc2c(c1)O[C@H](CN(C)CCC)[C@@H](C)CN([C@H](C)CO)S2(=O)=O
i	1.3	7.3	1.5	-4.3	C[C@@H]1CCCCO[C@@H](CN(C)S(=O)(=O)c2cn(C)cn2)[C@H](C)CN([C@@H](C)CO)C(=O)c2cc(NC(=O)NC3CCCCC3)ccc2O1
i	7.6&1.8	10.2&0.8	-0.9&2.0	0.8&-1.2&0.2	C[C@@H]1CN([C@@H](C)CO)C(=O)CCCn2nncc2CO[C@@H]1CN(C)C(=O)Nc1cccc(Oc2ccccn2)c1
i	4.5	2.0	-0.2	-0.7	CCCC#Cc1ccc([C@H]2[C@H]3CN(Cc4cccnc4)CCCCN3[C@H]2CO)cc1
i	0.4	4.0	-0.5	-2.2	C[C@@H]1CN([C@H](C)CO)C(=O)Cc2cc(NC(=O)CCC(F)(F)F)ccc2O[C@@H]1CN(C)S(=O)(=O)c1ccc(F)cc1
i	-46.8	-81.8	-17.5	7.1	C#Cc1ccccc1OCCCN1CCC(C(O)(c2ccccc2)c2ccccc2)CC1
i	-5.2	17.4	-4.6	0.6	CC(C)C#Cc1cnc2c(c1)C(=O)N([C@@H](C)CO)C[C@H](C)[C@@H](CN(C)C(=O)c1ccccc1)O2
i	7.7	6.3	-2.8	0.7	CO[C@H]1CC[C@@H]2CCN(C)C(=O)[C@@H](C)N(C)C(=O)c3cccc(C#N)c3OC[C@H]1O2
i	-5.5	-12.8	5.1	3.5	C[C@@H]1CCCCO[C@H](CN(C)C(=O)Cc2ccccc2)[C@@H](C)CN([C@@H](C)CO)C(=O)c2cc(NS(=O)(=O)c3cccs3)ccc2O1
i	3.6	4.0	-3.4	-2.2	CCCC(=O)Nc1ccc2c(c1)C(=O)N(C)C[C@H](OC)[C@@H](C)CN(S(=O)(=O)c1cn(C)cn1)[C@@H](C)CO2
i	-5.0	-0.1	1.3	1.9	Cc1ccccc1-c1cccc([C@@H]2C[C@H]3[C@H](CON3C)CN2C)c1
i	4.1	-0.2	-1.9	-0.5	CCCC(O)C#Cc1cnc2c(c1)C(=O)N([C@H](C)CO)C[C@H](C)[C@H](CN(C)C(=O)Nc1ccc(OC)cc1)O2 (some centres undefined)
i	-1.9	-15.6	0.8	-1.3	C[C@@H]1CN([C@@H](C)CO)C(=O)c2cc(NS(=O)(=O)c3ccc(F)cc3)ccc2O[C@@H]1CN(C)C(=O)Nc1ccc(C(F)(F)F)cc1
i	3.7	12.0	3.1	1.3	Nc1[nH]c(C(=O)c2ccc(Br)cc2)c(-c2ccc3ccccc3c2)c1C(=O)NCCc1c[nH]c2ccccc12
i	-13.5&-2.5	-2.4&-9.9	3.4&-4.0	0.2&-1.7	CC(=O)C1=CCC(c2ccccc2)N(S(=O)(=O)c2ccccc2)C1 (centres undefined)
i	0.3	2.0	-1.1	7.2	C[C@H]1CN([C@@H](C)CO)C(=O)c2ccccc2-c2ccccc2CO[C@H]1CN(C)S(=O)(=O)c1ccc([N+](=O)[O-])cc1
i	0.3&-0.8	14.1&2.3	-2.3&0.5	-2.6&0.4	C[C@@H]1CN([C@H](C)CO)C(=O)CCCn2nncc2CO[C@H]1CN(C)S(=O)(=O)c1cn(C)cn1
i	1.7	2.5	1.2	-16.1	C[C@@H](NC(=O)C[C@H]1C=C[C@H](NS(=O)(=O)c2cccc(F)c2)[C@H](CO)O1)c1ccccc1
i	-2.3	-7.6	-1.6	-0.5	COc1ccc(S(=O)(=O)Nc2ccc3c(c2)C(=O)N([C@@H](C)CO)C[C@@H](C)[C@@H](CN(C)C(=O)Nc2ccc(F)cc2)OCCCC[C@@H](C)O3)cc1
i	3.2	9.2	-1.3	-1.1	C[C@@H]1CN([C@H](C)CO)C(=O)c2cc(NC(=O)CCCN(C)C)ccc2O[C@H]1CN(C)C(=O)Nc1ccccc1
i	2.1	9.4	-3.8	-2.0	COc1ccc(NC(=O)N(C)C[C@@H]2Oc3ncc(C#C[C@@H](C)O)cc3C(=O)N([C@@H](C)CO)C[C@@H]2C)cc1
i	-6.6	-8.3	0.5	-28.7	O=C(C[C@H]1C=C[C@H](NC(=O)c2ccc3c(c2)OCO3)[C@H](CO)O1)NCc1ccc(Oc2ccccc2)cc1

Going on with the list.
FGF22 binding	rRNA inh HTS	rRNA inh HTS OD600	rRNA inh HTS RFP	MLL AF4-AF9 inh	SMILES
i	-3.6	-1.5	1.5	-8.1	CC(C)NC(=O)N(C)C[C@@H]1Oc2ncc(C#CCC3CCCC3)cc2C(=O)N([C@H](C)CO)C[C@H]1C
i	7.1	10.8	-0.7	-9.2	CC1=C(C(=O)N2CCCCCC2)CC(CC(=O)NC2CC2)C(=O)N1Cc1ccccc1 (centres undefined)
i	-11.5	-15.8	-1.0	5.5	Cc1ccc(Cc2c(C3CCCCC3)nc3ccc(Br)cn23)cc1
i	3.6	11.1	3.4	2.2	CCC(C(=O)NC1CCCC1)n1c(-c2ccncc2)nc2ccccc21 (centres undefined)
i	-1.6	5.0	5.5	3.0	Cc1noc(C)c1NC(=O)Nc1cccc2c1O[C@@H](CN(C)C(=O)Nc1cccc3ccccc13)[C@H](C)CN([C@@H](C)CO)C2=O

Not all compounds are listed; the hit share may differ from the screen's.
